# Bioassay records (PubChem)
# YjeE inh: displaces an ADP probe from E. coli YjeE (TsaE). Potency, µM. 71,000 compounds, 0.05% hits. P0AF67. purified YjeE, fluorescence polarisation of a bound ADP probe; active = well fitted falling curve; inconclusive = weaker or top-dose-only fall, or a rising curve; inactive = flat or poorly fitted curve;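 note: top concentration of the series not given in the record; excess ADP was the control for the full effect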
#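 Purified YjeE (10 uM) with BODIPY Texas Red-labeled ADP probe (2 uM); compounds pin-transferred, 15 min at room temperature. Binding inhibition read as decreased fluorescence polarization; ADP titration as control.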
# Bst PK mod: alters activity of Bacillus stearothermophilus pyruvate kinase | 51,000 compounds, 1.2% hits | partly purified Bacillus stearothermophilus pyruvate kinase, luminescence ATP production; ribose 5-phosphate activator present at AC10 | Potency, µM; in the data active means potency below about 11 µM; inconclusive means mostly about 12 µM to 25 µM; inactive means weaker than that;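 the screen sought inhibitors and activators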;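 note: potency is the fitted concentration of half-maximal effect; scaled between full activation by ribose 5 phosphate and full inhibition by luteolin; about four in five hits inhibit and the cells do not say which; series up to 57 µM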
# Numbers without * were called inactive; i = inactive; ? = inconclusive; / = not tested or not shown; & = joins results of further samples. These rows are one share of the data; the hit share may differ from the screen's.
YjeE inh | Bst PK mod | Structure
i | / | COc1ccc(-c2nc(Cn3c(SCc4cccc(F)c4)nc4ccncc43)c(C)o2)cc1OC
i | >57 | Cc1ccc(-c2nc(C#N)c(NCc3ccco3)o2)cc1
i | >57 | CN(C=O)CP(=O)(O)CCN1CCCC1=O
i | >57 | COc1ccc(NC(=O)CCc2ccccc2)cc1NC(=O)c1ccco1
i | >57 | COc1ccc(CCNC(=O)COC(=O)c2ccco2)cc1OC
i | >57 | O=C(COc1c(F)c(F)cc(F)c1F)NC(=O)NC1CCCC1
i | >57 | COc1ccccc1N=c1scc(-c2ccc3c(c2)NC(=O)CO3)n1CC1CCCO1 (stereo not drawn)
i | >57 | CC(C)Cn1c(-c2ccc(F)cc2)n[nH]c1=S
i | >57 | O=S(=O)(NCC1CCCO1)c1ccc(Oc2ccccc2)cc1 (stereo not drawn)
i | / | O=c1[nH]c(=S)[nH]c2c1CN(CCCN1CCOCC1)CN2
i | / | COc1c(Br)cc2c(C)c(C(=O)O)oc2c1Br
i | >57 | c1ccc2c(c1)oc1c(Nc3ccc4c(c3)OCO4)ncnc12
i | >57 | C=CCn1c(SCC(N)=O)nnc1-c1cccc(Br)c1
i | >57 | O=C1CCCc2c1cc(C(=O)NCc1ccco1)c(=O)n2-c1ccccc1
i | >57 | COC(=O)c1ccccc1NC(=O)c1noc2c1CC(C(C)(C)C)CC2 (stereo not drawn)
i | / | CNc1cc(-c2ccccc2C(F)(F)F)ncn1
i | / | CCOC(=O)c1c(C)n(O)c2ccc(Cl)cc2c1=O
i | / | c1nc(NCCN2CCOCC2)c2c3c(sc2n1)CCCCC3
/ | >26 | C=CCN1C(=O)CC(C(=O)NC)SC1=Nc1ccc(C(=O)OCC)cc1 (stereo not drawn)
/ | >26 | COc1ccccc1N1CCN(C2CCN(C(=O)c3cccs3)CC2)CC1
i | >57 | CCCn1c(N2CCN(CC(=O)c3c(C)n(C)c4ccccc34)CC2)nc2c1c(=O)[nH]c(=O)n2C
i | / | Cc1ccccc1-c1cc(Nc2ccccc2)ncn1
i | >57 | O=C(CSc1nnnn1-c1ccccc1)N1CCc2ccccc2C1
i | >57 | COc1ccc(N2C(=O)C3CCCN3C2c2cccc(C)c2)cc1Cl (stereo not drawn)
i | >57 | C=CCn1c(SCc2ccccc2C#N)nnc1-c1cc(Br)ccc1O
i | >57 | CCOc1ccc(-c2noc(COC)n2)cc1OC
i | >57 | Cn1cnnc1SCC(=O)Nc1ccccc1C(=O)NC1CCCC1
i | >57 | CCn1c(SCC(=O)Nc2ccc(C(C)=O)cc2)nc2ccccc21
i | / | Cc1ccc(S(=O)(=O)N(CC(=O)N2CCC(C(N)=O)CC2)Cc2ccc(F)cc2)cc1
i | >57 | Cc1cccc(-c2c3c(=O)n(C)c(=O)n(C)c3cn2CC2CCCO2)c1 (stereo not drawn)
i | / | C[C@@]12CC(=O)[C@@H]3[C@@H](CCC4=CC(=O)CC[C@]43C)[C@@H]1CC=C2CC(=O)O
i | >57 | O=C(OCC1CC(c2ccccn2)=NO1)c1ccc(Br)cc1 (stereo not drawn)
i | >57 | CCOC(=O)C1(C)NC(c2ccc(N(C)C)cc2)C2C(=O)N(c3ccc(OC)cc3)C(=O)C21 (stereo not drawn)
i | / | c1cncc(-c2nc(-n3ccnc3)c3ccccc3n2)c1
i | / | CCOC(=O)Cn1c(-c2ccccn2)nc2ccccc21
i | >57 | COc1ccc(-c2csc(NC(=O)c3cc(C)on3)c2C#N)cc1OC
i | >57 | O=C(Nc1ccccc1)NC1(C(=O)N2CCN(C(=O)c3ccco3)CC2)CCCCC1
i | / | Cc1ccc(S(=O)(=O)C2(C(=O)Nc3nccs3)CC2)cc1
i | >57 | c1ccc(Cn2nnnc2C(c2ccccc2)N2CCN(c3nc4ccccc4s3)CC2)cc1 (stereo not drawn)
i | >57 | COc1ccc(N2CCN(Cc3cc(=O)oc4c3ccc3ccccc34)CC2)cc1
i | >57 | O=C(Oc1cccc2c(=O)[nH]ccc12)c1ccccc1
/ | >11 | CN(C)CC(O)COc1cccc(OCC(O)CN(C)C)c1 (stereo not drawn)
i | >57 | O=C(Cc1ccccc1)N1CCC(c2nc3ccccc3[nH]2)CC1
i | >57 | CCc1cc2cc3c(cc2nc1SCC(=O)Nc1cc(C)on1)OCO3
i | >57 | CCOC(=O)c1c(NC(C)=O)sc2c(O)cccc12
i | >57 | COc1ccc(N2C(=O)CSC2c2ccc3c(c2)OCO3)c(OC)c1 (stereo not drawn)
i | >57 | Cc1[nH]c(=O)[nH]c(=O)c1S(=O)(=O)NCCc1ccc(S(N)(=O)=O)cc1
i | >57 | CC1(C)CC(O)C(C)(C)N1O (stereo not drawn)
i | >57 | CCOc1ccc2[nH]c(=O)c(CN(Cc3cccs3)Cc3nnnn3C(C)(C)CC)cc2c1
i | >57 | COc1ccc(CN2CC(C(=O)NCc3ccccn3)CC2=O)cc1 (stereo not drawn)
i | >57 | CCOC(=O)c1ccc(NC(=O)CC2C(=O)N(c3ccc(F)cc3)C(=O)N2CCCOC)cc1 (stereo not drawn)
i | >57 | CCN(Cc1cc2ccc(C)cc2[nH]c1=O)C(=O)c1cccnc1
/ | >26 | c1cc2c(cc1C1=Nn3c(nnc3C3CCCCC3)SC1)OCO2
i | >57 | CSc1nnc(NC(=O)c2ccc(C)c(S(=O)(=O)N3CCOCC3)c2)s1
i | i | Cc1cc2ccccc2c(=O)n1CC(=O)N(C)c1ccc(F)cc1
/ | >26 | CCCCCSc1nc(O)cc(=O)[nH]1
/ | >26 | N#Cc1nc(-c2cccs2)oc1NCc1ccccc1Cl
i | >57 | COc1cccc(-n2c(SCC(=O)NC(C)(C)C)nnc2-c2ccoc2C)c1
i | >57 | CCCCOc1cc(C)nc(NCc2ccccc2)n1
i | >57 | O=C(CCN1C(=O)c2ccccc2S1(=O)=O)NCc1ccco1

# 5 of the compounds above, as comma-separated lines.
Molecule,YjeE inh,Bst PK mod
CSc1nnc(NC(=O)c2ccc(C)c(S(=O)(=O)N3CCOCC3)c2)s1,i,>57
O=C(Oc1cccc2c(=O)[nH]ccc12)c1ccccc1,i,>57
CCOC(=O)c1c(NC(C)=O)sc2c(O)cccc12,i,>57
CC1(C)CC(O)C(C)(C)N1O (stereo not drawn),i,>57
CCOC(=O)c1ccc(NC(=O)CC2C(=O)N(c3ccc(F)cc3)C(=O)N2CCCOC)cc1 (stereo not drawn),i,>57

# Other structures
YjeE inh | Bst PK mod | Structure
i | / | O=C(COc1ccc(=O)n(-c2ccccc2)n1)Nc1ccccc1
i | >57 | Cc1ccc(N(C(=O)CNC(=O)c2ccco2)C(C(=O)NCC2CCCO2)c2ccccc2)cc1 (stereo not drawn)
i | >57 | O=C(Nc1cccnc1)C1OCCc2ccccc21 (stereo not drawn)
i | / | O=c1cc(CSc2ccc(Cl)cc2)nc2nc[nH]n12
i | >57 | CCCCSc1nc2c(cnn2-c2ccc(Cl)cc2)c(=O)[nH]1
i | / | COc1ccccc1N1CCN(C(=O)c2cn(-c3ccccc3)nc2-c2cccnc2)CC1
i | >57 | Cc1ccc(CN2C(=O)CCC2C(=O)NCCN(CC(C)C)CC(C)C)cc1 (stereo not drawn)
i | >57 | COc1ccccc1CNC(=O)C1CC(=O)N(C2CCCC2)C1 (stereo not drawn)
i | >57 | Cc1nn(-c2ccccc2)c(C)c1C(=O)OC/C(O)=C(\C#N)c1nc2ccccc2[nH]1
i | / | CCOc1ccc2nc(N3CCC(C(=O)N4CCN(C5CCCCC5)CC4)CC3)sc2c1
i | 7.4* | Cc1csc(NC(=O)c2sc3nc(-c4cccs4)ccc3c2N)n1
i | / | Cc1cc(C)c(S(=O)(=O)Nc2ccc(O)cc2)c(C)c1
/ | >11 | COc1ccc(C(=O)Nc2cccnc2)cc1C(=O)Nc1cccnc1
i | / | CCOc1ccc(N(CC(=O)NCC(C)C)S(C)(=O)=O)cc1
i | >57 | O=C(CN(Cc1ccc(F)cc1)C(=O)c1ccco1)NCc1ccc(F)cc1
i | >57 | CCC(C)(C(=O)NC1CCCCC1)N(Cc1ccco1)C(=O)CNC(=O)c1ccccc1 (stereo not drawn)
i | >57 | COc1ccccc1CN1C(=O)[C@@H]2C(CCC(N)=O)NC3(C(=O)Nc4c3ccc(Cl)c4C)[C@@H]2C1=O (stereo partly drawn)
i | / | NS(=O)(=O)c1ccc(N=Nc2nc3[nH]c(=O)[nH]c(=O)c3[nH]2)cc1
i | >57 | COC(=O)c1nc2nc(C)cc(C(F)(F)F)n2n1
i | >57 | Cc1ccc(CN2CCN(C(=O)C3CCC3)CC2)cc1

# One compound at a time, as listed above:
# Entry for CCC(C)(C(=O)NC1CCCCC1)N(Cc1ccco1)C(=O)CNC(=O)c1ccccc1 (stereo not drawn) → YjeE inh: i; Bst PK mod: >57
# Entry for CCCCSc1nc2c(cnn2-c2ccc(Cl)cc2)c(=O)[nH]1 → YjeE inh: i; Bst PK mod: >57
# Entry for O=C(CN(Cc1ccc(F)cc1)C(=O)c1ccco1)NCc1ccc(F)cc1 → YjeE inh: i; Bst PK mod: >57

# More results
YjeE inh | Bst PK mod | Structure
i | / | COc1ccc(C2=NOC(C(=O)Nc3cc(C)nn3-c3ccccc3)C2)cc1OC (stereo not drawn)
i | >57 | O=C(O)CCNc1ccc2c(c1)OCCO2
i | / | COCCNc1nc(C)nc2c1nc(-c1ccccc1)n2CC1CCN(C)CC1
i | >57 | N#Cc1ccc(CSc2nnc(Cc3cccs3)n2Cc2ccco2)cc1
i | / | CCCc1cc(=O)oc2cc(OCC(=O)OC)cc(OCC(=O)OC)c12
i | >57 | COc1ccccc1-c1nnc2sc(-c3ccc(N(C)C)cc3)nn12
i | >57 | C/C=C/c1ccc(OCCCCN2C(=O)NC(C)(C)C2=O)c(OC)c1
i | >57 | COCC(C)n1c(C)cc(C(=O)COC(=O)c2nc3nc(C)cc(C)n3n2)c1C (stereo not drawn)
i | >11 | CC(=O)N(CCO)Cc1cc2cc(C)cc(C)c2[nH]c1=O
/ | >26&>26 | Nc1nc(Cl)nc2c1ncn2[C@H]1C[C@H](O)[C@@H](CO)O1
i | >57 | COCCNC(=O)C(OC(=O)CC1Sc2ccccc2NC1=O)c1ccncc1 (stereo not drawn)
i | >57 | CCn1cc(C(=O)NCCCOC)c2cc(OC)c(OC)cc2c1=O
i | >57 | CN(CCNC(=O)C1CC(=O)N(c2ccc(F)c(Cl)c2)C1)Cc1ccccc1 (stereo not drawn)
i | >57 | CCCn1c(N)c(C(=O)COC(=O)c2c(C)noc2C)c(=O)n(C)c1=O
i | >57 | CC(C)c1ccc(NC(=O)C(c2ccccc2)N2CCN(C(=O)c3ccco3)CC2)cc1 (stereo not drawn)
i | >11 | c1ccc(Oc2cc(-n3cccn3)ncn2)cc1
i | >57 | COC(=O)C1=C(C)OC(N)=C(C#N)C1c1ccccc1 (stereo not drawn)
i | >57 | O=C(NCCc1ccc(Cl)cc1)C1CCN(S(=O)(=O)c2ccc(-n3cnnn3)cc2)CC1
i | >57 | N=c1c(C(=O)NCc2ccc(F)cc2)cc2c(=O)n3ccccc3nc2n1CC1CCCO1 (stereo not drawn)
i | / | O=C1NCCCC1C(=O)N1CCN(C(=O)c2ccco2)CC1 (stereo not drawn)

# The closing 2 records of the section before are carried over, then new ones follow.
YjeE inh | Bst PK mod | Structure
i | >57 | N=c1c(C(=O)NCc2ccc(F)cc2)cc2c(=O)n3ccccc3nc2n1CC1CCCO1 (stereo not drawn)
i | / | O=C1NCCCC1C(=O)N1CCN(C(=O)c2ccco2)CC1 (stereo not drawn)
i | >57 | Cc1cc(NC(=O)COc2cccc(Oc3ccccc3)c2)no1
i | >57 | O=C(CSc1nc2ccccc2c(=O)n1Cc1ccco1)N1CCCCCC1
i | / | CCN(CC)CCCn1c(-c2ccccc2)nc2c(N(CCOC)CCOC)nc(C)nc21
i | >57 | Cc1cc(Br)ccc1NC(=O)CNC(=O)CN1C(=O)NC2(CCCCCC2)C1=O
i | / | CCOC(=O)N1CCN(c2c(NCc3ccccc3OC)c(=O)c2=O)CC1
i | / | CCOCCCNC(=O)C(c1ccc(C)cc1)N1CCOCC1 (stereo not drawn)
i | / | COc1ccc(C)cc1S(=O)(=O)N1CCN(S(=O)(=O)c2cc(C)ccc2OC)CC1
i | >57 | CCC1CCCCN1C(=O)CSc1nnc(-c2ccc3c(c2)OCCO3)o1 (stereo not drawn)
i | / | COc1ccc(-c2nc3cnc(N4CCN(C)CC4)nc3n(Cc3cccs3)c2=O)cc1
i | >57 | CCOC(=O)c1c(N)sc(C(=O)N2CCCC2)c1C
i | >57 | O=C(CCn1c(=O)[nH]c2ccsc2c1=O)N1CCN(c2cccc(Cl)c2)CC1
i | / | O=C(Nc1ncc(Br)s1)C1CCCN1S(=O)(=O)c1cccc2cccnc12 (stereo not drawn)
i | / | Oc1ccccc1CNCc1ccccc1O
i | >11 | COc1cccc(-c2csc(N3CCN(C(=O)C4CCCCC4)CC3)n2)c1
i | >57 | O=C(COC(=O)c1ccccn1)NCCCc1ccccc1
? | >57 | CC1CC(C)CN(S(=O)(=O)c2ccc(C(=O)Nc3nnc(-c4cccs4)o3)cc2)C1 (stereo not drawn)
i | >57 | Cc1onc(-c2ccncc2)c1C(=O)O
i | >57 | c1ccc(OCCCCn2cnc3ccccc32)cc1
i | / | CN1CCN(C(=O)C2CCN(S(=O)(=O)c3ccc4c(c3)oc(=O)n4C)CC2)CC1
i | >57 | CC1CCCCC1NC(=O)C1CCN(S(=O)(=O)N2CCCCCC2)CC1 (stereo not drawn)
i | / | Cc1cccc(OCc2nnc(SCC(=O)NCCc3ccccc3)o2)c1
i | / | c1ccc(CCCNc2ncnc3nc[nH]c23)cc1
i | >57 | CCOc1ccccc1Nc1nc(N)nc(CSc2nncn2C)n1
